# Screens deposited in PubChem BioAssay by several laboratories.
# AF4-AF9 inh: MLL-AF4/AF9 protein interaction inhibition | P42568 | AlphaScreen, biotin-AF4 peptide binding to FLAG-AF9 | inhibition, % at 10 µM | actives 0.47% (n = 350,000) | AID 651704;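 active = every replicate reaching a set inhibition limit, whatever the replicate mean, cut at about 25% in these data; inconclusive = mean inhibition reaches that limit but some replicates miss it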;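 also: 0% = plate neutral control median and 100% = total signal loss; the record names both 10 and 1 µM as test concentration; the first replicate is given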
# Target sequence (P42568 whole entry, looked up): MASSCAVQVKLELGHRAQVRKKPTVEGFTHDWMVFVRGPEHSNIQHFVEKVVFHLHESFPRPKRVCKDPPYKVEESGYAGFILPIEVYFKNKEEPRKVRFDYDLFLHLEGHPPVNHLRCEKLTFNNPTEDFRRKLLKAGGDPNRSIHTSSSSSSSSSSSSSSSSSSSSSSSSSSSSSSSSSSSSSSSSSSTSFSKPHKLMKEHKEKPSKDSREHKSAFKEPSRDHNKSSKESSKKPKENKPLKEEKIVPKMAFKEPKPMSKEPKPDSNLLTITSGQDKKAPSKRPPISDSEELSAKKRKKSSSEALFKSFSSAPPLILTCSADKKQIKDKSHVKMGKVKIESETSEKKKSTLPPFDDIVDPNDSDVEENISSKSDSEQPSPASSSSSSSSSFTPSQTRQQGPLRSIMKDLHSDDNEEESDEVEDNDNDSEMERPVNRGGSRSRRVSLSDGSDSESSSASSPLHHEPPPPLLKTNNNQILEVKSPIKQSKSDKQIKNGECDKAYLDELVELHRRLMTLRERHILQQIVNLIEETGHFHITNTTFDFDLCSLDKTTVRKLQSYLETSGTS
# Calb FLC: affects C. albicans growth with fluconazole. C. albicans CaCi-2 (fluconazole-resistant clinical isolate) + fluconazole, Alamar Blue growth, 48 h. AID 1979. actives 0.57% (n = 300,000). growth inhibition, % (concentration not given with the values);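 active = most replicates above 75%; inconclusive = exactly half above 75%; inactive = most below 75%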;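 also: all wells also contain fluconazole at 8 µg/ml as a sub-toxic cotreatment; 0% = median of DMSO wells and 100% = median of geldanamycin control wells; wells of about 8 µL received 7.5 nL stock; the first replicate is given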
# RanGTP-Imp inh: disruptors of Ran-importin-beta complex formation – biochemical, FRET, CFP-Ran, YFP-importin-beta, homogeneous, primary screen; cell-free CFP-Ran/YFP-importin-beta FRET ratio; actives 1.1% (n = 300,000); inhibition, % (test concentration not listed); AID 2216;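 active = most replicates above 15%; inconclusive = exactly half above 15%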;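 also: 0% = DMSO wells and 100% = Ran loaded with GDP instead of GTP; wells of about 40 µL received 100 nL stock; the first replicate is given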
# Beta cell apopt: blocks beta cell apoptosis; INS-1E cytokine-induced death, ATP luminescence, 48 h; percent of positive-control rescue, neutral wells zero; protection from apoptosis, % (test concentration not listed); actives 0.8% (n = 300,000);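 active = all replicates at 75% or more, or half of them and the mean; inconclusive = half reach 75% but not the mean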;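 also: 0% = cytokine-treated negative control wells and 100% = positive control rescue; higher means more ATP so stronger rescue from cytokine killing; wells of about 40 µL received 100 nL stock; the first replicate is given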
# Vif TR-FRET: HIV-1 Vif–A3G interaction blockers – biochemical, TR-FRET, GST-Vif 1-94, biotin-A3G peptide, dose response retest, primary screen (AID 1117319); actives 0.57% (n = 260,000); TR-FRET GST-Vif / biotin-A3G peptide binding; higher % means a stronger effect; test concentration not given here; strong numbers were not always called active; inhibition, %, or IC50 in µM where a hit was titrated;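 active = above the screen mean plus three standard deviations and confirmed in dose response; inconclusive = results disagree or hit not tested in dose response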;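 also: Vif residues 1-94 fused to GST binding biotinylated APOBEC3G peptide 110-148; 0% = full assay without inhibitor and 100% = GST in place of GST-Vif; retest series ran down from 100 µM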
# Bfl-1 A1 inh: inhibitors of the anti-apoptotic protein A1, read as caspase activation | MEF A1-2A-BIM cells, Caspase-Glo 3/7 luminescence, 3 h; percent of clofoctol response, vehicle zero | actives 0.066% (n = 330,000) | AID 2462 | caspase activation, % (no concentration beside the values);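 active = over half of replicate activation scores above 10%, or exactly half above 10 with the replicate mean above 10; inconclusive = replicate mean below 10 yet half the replicates above 10; inactive = over half of replicates below 10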;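 also: wells of about 30 µL received 50 nL stock; many hits fall short of the cut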
# T cruzi repl: blocks replication of Trypanosoma cruzi | T. cruzi beta-gal in NIH3T3, luminescence, 90 h | inhibition, % (test concentration not listed) | actives 1.4% (n = 300,000);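 active = mean inhibition across valid replicates above about 55%, limit read from the data; inconclusive = mean below that limit but half or more replicates reach it; inactive = mean below it, under half of replicates reach it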;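 also: signal also drops with host cell toxicity which is not excluded here; 0% = plate median of DMSO wells and 100% = zero luminescence signal; higher percent means less beta-gal luminescence so fewer parasites; stock transfer was 50 nL into about 50 µL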
# rRNA inh HTS: inhibitors of bacterial rRNA selective over humanized ribosomes; E. coli WT GFP vs humanized-ribosome RFP mutants, fluorescence, 24 h; hits give low values; DMSO median 0, no signal -100; actives 1.6% (n = 350,000); GFP signal change (wild-type ribosome), % (test concentration not listed);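 active = significant combined selectivity score with lowered wild-type GFP, culture density cut under 30%, mutant RFP and density less affected; inactive = any of these conditions unmet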; also: one replicate is shown; some compounds called inactive have numbers as strong as hits
# rRNA inh HTS OD600: recorded beside rRNA inh HTS, whose call it bears; OD600 change, %; measured here: OD600 growth;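 optical density of the mix in the first replicate; 0 = DMSO median and -100 = no signal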
# rRNA inh HTS RFP: also measured in rRNA inh HTS; calls as there; RFP signal change, %; measured here: RFP humanized mutant strains;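 first replicate; 0 = DMSO median and -100 = no signal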
# Numbers without * were called inactive; u = inconclusive; x = no result given; & = joins results of further samples.
SMILES,AF4-AF9 inh,Calb FLC,RanGTP-Imp inh,Beta cell apopt,Vif TR-FRET,Bfl-1 A1 inh,T cruzi repl,rRNA inh HTS,rRNA inh HTS OD600,rRNA inh HTS RFP
CCOC(=O)c1c(C)oc2cc(Cl)c(O)c(CN(C)C)c12,4.5,-3,0.6,0,12%,-0.3,-18,2,-3,4.2
Cc1cc(C(=O)Nc2sc3c(c2C#N)CCC(C(C)(C)C)C3)no1 (stereo unspecified),x,31,2.4,12,3%,0.6,-30,x,x,x
O=C(c1cc(-c2cccs2)on1)N1CCN(c2ccccc2)CC1,7.6,-1,-1.3,-7,9%,0.1,-11,-37,-29,31
CC(C)c1ccccc1NC(=S)NC1CCCCC1,12,-7,-1.1,4,1%,1.4,6,-8,-28,-10.0
Cc1cccc(C(=O)NC2CCN(CC(=O)NCc3cccs3)CC2)c1,-1.8,7,3.3,1,14%,0.3,-13,x,x,x
CC(C)N(CC(N)=O)C(=O)Cc1coc2cc3c(cc12)CCC3,-0.9,2,-2.3,-3,14%,1.1,-7,x,x,x
O=C(Nc1ccccc1N1CCCCC1)c1ccc(Cl)cc1,-1.8,-6,1.2,-3,-3%,7.3*,2,1,-3,3.7
CCC(CC)C(=O)NCc1ccc2c(c1)cc(C)n2C,x,-12,-1.9,9,14%,0.1,-7,x,x,x
COC(=O)c1cn(-c2ccccc2)c(C)c1C(=O)OC,x,-26,-2.0,-2,-5%,-0.2,-7,x,x,x
N#CCCN(/N=C/c1cccnc1)C1=NS(=O)(=O)c2ccccc21,0.6,3,6.1,5,29%,0.6,-20,1,6,-2.3
O=C(O)c1ccc(Oc2cc(Oc3ccc(C(=O)O)cc3)cc([N+](=O)[O-])c2)cc1,-8.7,9,-0.1,1,x,1.8,-6,-5,5,2.8
NC(=O)N/N=C/c1ccc(-c2ccc([N+](=O)[O-])cc2)o1,x,11,-28,4,1%,-0.4,9,6,5,-0.1
O=C(NC1CCSc2ccccc21)c1cccc(OC(F)F)c1 (stereo unspecified),-4.1,-8,0.5,1,24%,0.0,5,-4,-21,-2.0
CN(C)c1cccc(NC(=O)Cc2ccc(F)cc2)c1,x,1,5.0,9,0%,0.0,-9,x,x,x
Fc1ccc(NC(=S)N2CCSC2c2cccs2)cc1 (stereo unspecified),0.3,-6,-0.9,-4,x,0.0,-77,-10,-14,-4.1
O=C(Nc1cccnc1Cl)c1cc(-c2ccc(Cl)cc2)on1,-0.3,6,-0.2,2,x,-2.2,-9,8,12,-0.4
COC(=O)/C(=N/Nc1ccccc1C)Sc1nnc(C(O)c2ccccc2)n1-c1ccccc1 (stereo unspecified),-0.2,-9,x,-15,25%,0.0,15,-6,-6,-2.0
CCn1c(Cc2ccccc2)nnc1SCC(=O)Nc1nccs1,x,-3,-3.9,-6,-3%,0.8,-15,x,x,x
C#CCNC(=O)C1=C[C@@H](c2ccccc2)C[C@@H](OCCCCO)O1,2.1&-3.8,1,-3.0,-5,x,0.4,1,6,6,-1.7
Nc1nc2c(c3c1c(=O)oc1ccccc13)CCCCC2,x,-6,1.3,-2,21%,1.3,-8,x,x,x
COc1ccccc1-n1ccnc(SCC(=O)NC2CCCCC2)c1=O,0.0,-3,-1.2,-17,-13%,-0.1,-3,9,8,0.4
O=C(CNc1cccc(S(=O)(=O)N2CCCCC2)c1)Nc1cccc(F)c1,-10,5,-1.6,-3,-3%,-0.9,8,-5,3,-2.5
Cc1c(C(=O)Oc2ccc(Cl)cc2)n(C)oc1=O,-3.3,-17,4.0,-10,0%,0.2,-5,13,5,-3.7
COc1c(Cl)cc(C(=O)Nc2ccc(Cl)cn2)cc1Cl,x,4,2.4,x,-8%,-0.1,9,x,x,x
CC1CCc2nc3ccccc3c(C(=O)OCC(=O)N3CCc4ccccc43)c2C1 (stereo unspecified),x,2,2.3,11,-27%,-0.2,43,x,x,x

# New compounds follow.
SMILES,AF4-AF9 inh,Calb FLC,RanGTP-Imp inh,Beta cell apopt,Vif TR-FRET,Bfl-1 A1 inh,T cruzi repl,rRNA inh HTS,rRNA inh HTS OD600,rRNA inh HTS RFP
CC/C(=N\NC(=O)c1c[nH]c2ccccc12)c1cccs1,-52,u,2.1,12,-7%,-1.9,12,8,3,2.0
CCCOc1ccc(Cc2c(Cl)nc(SC)nc2OC)cc1,-3.1,17,-1.5,18,u,0.0,-10,17,11,-2.2
Cc1cc(OC2CCCCC2)nc(-c2ccccc2O)n1,x,-19,u,1,-1%,0.5,9,x,x,x
CCOc1ccc(NC2=C(Cl)C(=O)N(C3CCCCC3)C2=O)cc1,2.0,-23,-2.9,6,-1%,0.4,15,2,-1,-2.4
O=C(C1CCCN(S(=O)(=O)c2ccc(Br)cc2)C1)N1CCN(Cc2ccccc2)CC1 (stereo unspecified),5.2,-9,3.1,4,x,0.9,17,-3,-5,-1.6
Cc1nn(CC(=O)NCc2ccccn2)c(C)c1[N+](=O)[O-],-9.9,-6,3.8,-8,-5%,-0.1,7,20,2,-0.6
Cc1cc(C(=O)COC(=O)c2cnccn2)c(C)n1-c1ccc(Br)cc1,4.1,x,x,-7,1%,-0.5,x,-4,-10,1.7
CC(C)[C@H](NC(=O)[C@@H]1CSC2c3ccccc3C(=O)N21)C(=O)NCc1ccncc1 (stereo partly specified),1.1,12,0.6,-5,4%,-0.3,-34,2,4,0.1
O=C(CN1CCN(c2ccc(F)cc2)CC1)Nc1cccnc1Cl,-2.3,u,-2.2,-4,9%,0.1,-10,-1,-8,-1.8
COc1cccc(OC)c1C(=O)Nc1ccc2c(c1)n(C)c(=O)n2C,0.8,-4,-0.3,-4,x,1.8,7,6,5,2.3
COc1cccc(CN2CC(C(=O)NCc3ncc(C)[nH]3)CCC2=O)c1 (stereo unspecified),-1.1,-21,3.6,-3,1%,-0.2,-14,18,20,-0.3
Cc1ccc(OCCCSc2ncccn2)cc1C,x,29,-3.3,-3,-13%,-0.9,-6,x,x,x
O=C(COc1ccc(-c2ccccc2)cc1)NNC(=O)NC1CCCCC1,-3.4,-10,-4.0,-3,4%,-0.5,-3,-2,-5,-2.2
CCOC(=O)/C(C)=N/NC(=O)c1ccc([N+](=O)[O-])cc1,-1.3,-19,x,5,24%,1.2,7,15,9,-0.8
COc1ccccc1N1CCN(C(=O)CCCNC(=O)Cn2cnc3sc(C)c(C)c3c2=O)CC1,-3.7,11,0.5,5,u,0.1,-10,-9,-11,0.3
Cc1ccc(-n2ncc(-c3nnc(SCC(=O)NC4CCCC4)o3)c2N)cc1C,x,4,u,-1,-2%,0.5,2,x,x,x
CCOc1ccc(N2C(=O)CSC2=NC#N)cc1,2.1,x,x,-4,-4%,-0.2,x,0,5,-2.2
CCOc1ccc(C(=O)OCC(=O)NCCCc2ccccc2)cc1,-1.5,-13,2.4,2,-2%,0.2,1,0,-7,-3.7
Nc1cccc(S(=O)(=O)c2ccc(N)c(N)c2)c1,-1.6,-1,5.7,-5,-5%,2.0,-6,3,17,0.9
CC(C)N(C)Cc1nnnn1CC(=O)NCc1cc(F)cc(C(F)(F)F)c1,-3.2,2,-0.8,-7,x,-0.7,-14,4,-18,1.0
COc1ccccc1NC(=S)N(Cc1ccc(C(=O)O)cc1)Cc1ccc(OC)c(OC)c1,-2.2,7,3.5,3,x,-1.2,9,-1,3,1.9
CC1=C(C#N)C(NC(=O)c2ccc(Cl)cc2)(C(F)(F)F)C(=O)N1 (stereo unspecified),0.4,6,1.3,8,22%,-0.4,-6,10,13,-3.3
Cc1ccc2occ(CN3CCN(Cc4ccccc4)CC3)c(=O)c2c1,x,1,6.0,5,-2%,-0.8,7,x,x,x
CN(C)CCCNC(=O)c1ccc(Oc2ccccc2)cc1,13,-12,0.9,0,x,0.6,54,10,10,1.8
O=C(CNC(=O)c1ccccc1F)OC1CCOC1=O (stereo unspecified),1.3,x,x,1,x,0.1,x,4,15,1.8

# Other compounds follow:
SMILES,AF4-AF9 inh,Calb FLC,RanGTP-Imp inh,Beta cell apopt,Vif TR-FRET,Bfl-1 A1 inh,T cruzi repl,rRNA inh HTS,rRNA inh HTS OD600,rRNA inh HTS RFP
CC(=O)Nc1c(S(=O)(=O)c2ccccc2)c2nc3ccccc3nc2n1Cc1ccccc1,x,-1,23*,-1,-26%,0.3,19,x,x,x
CCN(CC)CCNC(=O)c1cn(CC)c2ccc(S(=O)(=O)N3CCc4ccccc4C3)cc2c1=O,-3.2,-5,-2.8,-6,x,0.0,19,-20,-14,-2.0
COc1ccc(C(c2nnnn2Cc2cccs2)N2CCN(c3ccccc3F)CC2)cc1 (stereo unspecified),x,6,-4.4,8,0%,0.8,25,x,x,x
Cc1nc2c(C(=O)NCc3ccccc3Cl)c[nH]n2c(=O)c1Cl,8.4,15,4.2,-12,-4%,-0.3,6,5,-3,-1.0
CC(C)c1ccc2occ(-c3nn[nH]n3)c(=O)c2c1,-1.8,5,1.5,-6,-5%,0.5,7,4,-7,-2.1
CCOc1cccc(/C=C(/C#N)c2nc3ccccc3[nH]2)c1OCC(=O)O,1.8,4,2.7,-3,x,0.6,-5,2,4,7.2
Cc1ccc(C(NC(=O)c2cccc(S(=O)(=O)N3CCN(C)CC3)c2)c2ccccc2)cc1 (stereo unspecified),2.7,x,x,-2,x,-0.5,x,1,5,1.7
C1=CC2CC1CC2CN1CCN(Cc2ccccc2)CC1 (stereo unspecified),x,-2,-2.6,-2,26%,0.2,40,x,x,x
N/C(Cc1cccc2ccccc12)=N\OC(=O)c1ccccc1F,-8.8,-14,2.4,-2,x,-0.6,-3,7,-2,38
O=C(COc1ccc([N+](=O)[O-])cc1)Nc1ccc(C(=O)NCc2cccnc2)cc1,x,8,-0.1,101*,16%,0.0,20,x,x,x
CCOc1ccc(/C=C2/SC(=S)N(n3c(C)ccc3C)C2=O)cc1,x,-7,1.2,x,3%,-0.9,-2,x,x,x
CCCCN1C(=O)/C(=C/C=C2\N(C)c3ccccc3C2(C)C)SC1=S,x,-1,-3.7,43,0%,-0.8,47,x,x,x
COC(=O)[C@@H](NC(=O)c1ccc(OC2CCN(Cc3ccccn3)CC2)cc1)C(C)C,x,22,-0.6,1,0%,0.8,-22,x,x,x
CCN(CC(=O)NC1CCCCC1)S(=O)(=O)c1ccc(Cl)cc1,x,-1,-1.1,-4,1%,0.2,9,x,x,x
Cc1ccc(NC(=O)COC(=O)c2ccc(S(=O)(=O)NCc3ccco3)cc2)cc1,-1.6,x,x,-1,-1%,0.3,x,3,8,-1.7
Cc1cc(C)n2nc(C(=O)NCc3ccccc3)cc2n1,1.4,6,5.4,2,26%,-0.3,-20,-1,1,-5.2

# Some of the compounds tested (hit frequency here may not be typical).
